AID504770: E. coli YBA685 growth inhibition, screen for V. cholerae RctB inhibitors. AID 504770. 130,000 compounds, 0.27% hits. z-score (concentration not given with the values). E. coli YBA685 rctB-dependent plasmid, OD600 growth, 3 h; hits give low values;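 active means z-score under -2 on both plates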;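 further: wells of about 30 µL received 100 nL stock; score is relative to mean and SD of the test wells; the first replicate is given; strong numbers were not always called active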
CapD inh: blocks the Bacillus anthracis CapD enzyme; purified CapD enzyme, fluorescence intensity read-out; hits give low values; some hits fall short of the stated cut; z-score (no concentration beside the values); 140,000 compounds, 0.23% hits;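 active means z-score under -4 in either of two replicates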;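 further: stock transfer was 100 nL into about 40 µL; score is relative to mean and spread of the plate; one replicate is shown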
Active calls of the source: *; . = not tested or not shown. Only part of the results is shown. The share of hits here may be higher or lower than overall.

Second line of a record – AID504770, CapD inh
1	COc1ccc(S(=O)(=O)NC2CCCC2OCc2ccccc2)cc1OC (configuration not stated)
    ., 0.315
2	CCCCN(CC)S(=O)(=O)c1ccc(C(=O)N=c2sc(C(=O)OCC)c(C)n2C)cc1
    -1.95, .
3	COc1ccccc1NS(=O)(=O)c1ccc(C(=O)N2CCN(c3ccccn3)CC2)cc1
    -0.4, .
4	COc1ccc(CC2CCC(=NOC(=O)c3ccc([N+](=O)[O-])cc3)CC2)cc1 (configuration not stated)
    ., 0.485
5	CC1CN(CC(O)COc2ccccc2C(C)C)CC(C)O1 (configuration not stated)
    -0.3, 0.41
6	Cc1ccc(NC(=O)COc2ccc(Cl)cc2)cc1N(C)C
    0.95, -0.62
7	CCCc1nc(C)cc(N2CCCC2)n1
    1.55, -1.07
8	CCCn1c2c(c(O)c(C(=O)Nc3nc(C45CC6CC(CC(C6)C4)C5)cs3)c1=O)CCCC2
    ., -0.26
9	O=C(O)CSCC(=O)Nc1ccc(Oc2c(Cl)cccc2Cl)nc1
    -0.65, 1.4
10	OC(CCN1CCCCC1)(c1ccccc1)C1CC2C=CC1C2 (configuration not stated)
    ., -0.105
11	CCCS(=O)(=O)c1nc2ccccc2n1Cc1cc(C)ccc1C
    0.05, .
12	CCOC(=O)CN1C(=O)C(O)(CC(=O)c2ccc(OC)cc2OC)c2ccccc21 (configuration not stated)
    ., -0.75
13	CC1=NN(C(=O)CCCc2ccccc2)C(O)(c2ccc(Br)cc2)C1 (configuration not stated)
    ., -0.225
14	CC1=NOC(=O)/C1=C\c1ccc(O)c(O)c1
    -2.05, -0.48
15	CCOC(=O)/C=C1\SC(C)C(=O)N1CC(=O)c1ccc(Br)cc1 (configuration not stated)
    0.25, .
16	CC1(C)CC(=O)C2=C(C1)N(c1ccccc1C(F)(F)F)C(N)=C(C#N)C2c1cccs1 (configuration not stated)
    ., -0.46
17	COC(=O)CSc1ccc2nnc(-c3ccccc3)n2n1
    -0.75, 3.42
18	CC1=CC(c2ccc(Cl)cc2)n2nc(NC(=O)CCCC(=O)O)nc2N1 (configuration not stated)
    -0.2, -1.1
19	Nc1cc(Cl)ccc1N1CCCCC1
    1.95, -0.96
20	O=C(CCc1ccccc1)Nc1nnc(SCC(=O)N2CCCCCC2)s1
    -0.2, -0.3
21	Cc1ccc(CN2CCC(CNS(=O)(=O)c3ccc4c(c3)CCCC(=O)N4)C2)cc1 (configuration not stated)
    1.55, -0.155
22	O=C(O)CCC(=O)N1CCC(c2ccccc2)=N1
    -0.05, .
23	COc1ccccc1-[n+]1c(C)cc(C)cc1C
    0.2, -0.24
24	Cc1ccc(OCCn2c(N)nc3ccccc32)cc1
    -1.05, -0.275
25	CCCCn1c(Br)nc2c1c(=O)[nH]c(=O)n2C
    1.3, -0.855
26	Cc1ccc(CN2CCN(/N=C/C=C/c3ccco3)CC2)cc1
    0.8, .
27	S=C(NCC1CCCCC1)Nc1cccnc1
    -0.15, -0.675
28	Cn1c(SCc2ccccc2)nc2cc(C(F)(F)F)cnc21
    0.1, -0.15
29	O=c1cc(-c2ccc(Cl)cc2)oc2ccccc12
    1.7, -0.12
30	O=C(Nc1ccc(Cl)cn1)C1(F)C(F)(F)C(F)(F)C(F)(F)C(F)(F)C1(F)F
    0, .
31	CC1CCCC(C)N1C(=O)CSc1nc2ccccc2n1CC(=O)NC1CCCC1 (configuration not stated)
    -0.45, .
32	CCOC(=O)c1sc2[nH]c(C(C)(C)C)cc(=O)c2c1C
    1.2, .
33	O=c1cnc2ccccc2n1CCOc1ccc(Br)cc1
    2.15, .
34	FC(F)(F)c1ccc(-c2nnc3ccc(NC4CC4)nn23)cc1
    -0.1, -0.345
35	CCOC(=O)C(Cc1ccc(NC(=O)c2ccccc2)cc1)N1C(=O)c2ccccc2C1=O (configuration not stated)
    -0.7, 0.175
36	Cc1ccc(-n2c(O)c(C=NCCc3ccco3)c3ccccc3c2=O)cc1
    -2.5, .
37	COC(OC)c1ccc(C#N)c(SCC(=O)Nc2ccccc2)n1
    -0.2, -0.095
38	CC(=O)N1CCc2c(sc(NC(=O)Cc3ccccc3)c2C#N)C1
    0.3, -0.265
39	COc1ccccc1N(CC(=O)Nc1c(C)n(C)n(-c2ccccc2)c1=O)S(=O)(=O)c1ccccc1
    ., -0.24
40	N/C(=N\O)c1cccc(CSc2ccccn2)c1
    0, -0.13
41	COC(=O)c1cccc(Cn2nc(C)c(Cl)c2C)c1
    -0.1, -0.42
42	CCN(CC)C(=O)Cn1nnc(-c2ccc(C)cc2)n1
    -0.15, 0.295
43	Nc1c(S(=O)(=O)c2ccccc2)c2nc3ccccc3nc2n1-c1ccc2c(c1)OCO2
    -0.1, .
44	CCCN1C(=O)C(Cc2nc3ccccc3c(=O)n2C)c2ccccc21 (configuration not stated)
    0, 0.435
45	CC1=C(C(=O)Nc2cc(C(F)(F)F)cc(C(F)(F)F)c2)SCCO1
    2.3, -0.765
46	Cc1nc(C(=O)Nc2cccc(C(F)(F)F)c2)nn1-c1ccc(F)cc1
    ., -0.49
47	CCC1NCCc2c1[nH]c1ccccc21 (configuration not stated)
    0.2, 1.03
48	CCOC(=O)Cc1cccc[n+]1Cc1ccc(C)cc1
    ., -0.38
49	O=S1(=O)C=C(N2CCOCC2)c2ccccc21
    0.15, -1.48
50	Cc1cc(S(=O)(=O)NCC2CC2)c(C)cc1Cl
    ., 0.015

Carrying on:
Second line of a record – AID504770, CapD inh
51	O=c1[nH][nH]c(=S)n2nc(-c3ccccc3)cc12
    -1, .
52	O=C(O)C(Sc1nncc(-c2ccccc2)n1)c1ccccc1 (configuration not stated)
    -0.5, .
53	O=c1[nH]c2ccc(Cl)cc2c(-c2ccccc2)c1NCN1CCOCC1
    -0.9, .
54	NS(=O)(=O)c1ccc(Sc2ccccn2)c([N+](=O)[O-])c1
    ., -0.065
55	CCOC(=O)c1c(CN(C)CCO)n(C)c2cc(Br)c(OC(C)=O)cc12
    ., 0.28
56	CC(Cn1cnc2ccccc21)C(=O)N/N=C/c1ccccc1 (configuration not stated)
    1.1, .
57	Nc1c(C(=O)Nc2ccc([N+](=O)[O-])cc2)sc2nc3c(c(-c4ccco4)c12)CCCCC3
    ., -0.495
58	Cc1[nH]c2ccc(C(=O)O)cc2c1CC(=O)O
    -0.3, 5.75
59	CCOC(=O)c1c(C)oc2c(Br)cc(NS(=O)(=O)c3ccc4ccccc4c3)cc12
    ., -0.05
60	O=C(Nc1cccc(Cl)c1)c1nn(-c2ccc(Cl)cc2)c(=O)c2ccccc12
    -0.55, -0.28
61	Cc1ccc(S(=O)(=O)NC(CO)C(=O)O)cc1 (configuration not stated)
    -0.65, .
62	Nc1nc(Cn2c(=O)oc3ccccc32)nc(N2CCCCC2)n1
    ., 0.06
63	O=P(CO)(c1ccc(Cl)cc1)c1ccc(Cl)cc1
    -0.45, -0.46
64	CN(C)C=Nc1nc2ccccc2nc1N1CCOCC1
    0.15, .
65	CC(=O)OC[C@H]1O[C@@H](Oc2ccc(C)cc2)[C@H](OC(C)=O)[C@@H](OC(C)=O)[C@@H]1OC(C)=O
    ., 0.785
66	CC(C)c1csc2nc3n(c(=O)c12)CCCCC3
    -0.75, 0
67	CCCC(=O)Nc1ccc(N)cc1
    -0.55, 0.41
68	CN(C)C(=O)c1cccc2c1NC(c1ccc(Cl)cc1Cl)C1CC=CC21 (configuration not stated)
    ., -0.935
69	COC(=O)Oc1ccc2c(=O)c(-c3ccccc3)coc2c1
    -2.25, -0.75
70	Cc1cccc(N2C(=O)CNC2=S)c1
    0.15, 0.365

Reprinted from the entries so far for reference:
Second line of a record – AID504770, CapD inh
61	Cc1ccc(S(=O)(=O)NC(CO)C(=O)O)cc1 (configuration not stated)
    -0.65, .
62	Nc1nc(Cn2c(=O)oc3ccccc32)nc(N2CCCCC2)n1
    ., 0.06
63	O=P(CO)(c1ccc(Cl)cc1)c1ccc(Cl)cc1
    -0.45, -0.46
64	CN(C)C=Nc1nc2ccccc2nc1N1CCOCC1
    0.15, .
65	CC(=O)OC[C@H]1O[C@@H](Oc2ccc(C)cc2)[C@H](OC(C)=O)[C@@H](OC(C)=O)[C@@H]1OC(C)=O
    ., 0.785
66	CC(C)c1csc2nc3n(c(=O)c12)CCCCC3
    -0.75, 0

The list goes on.
Second line of a record – AID504770, CapD inh
71	CCC1SC(NC(=O)COc2ccc(OC)cc2)=NC1=O (configuration not stated)
    1.1, .
72	COc1ccc(S(=O)(=O)Nc2ccc(S(=O)(=O)N(C3CC3)C3CCN(C(C)=O)CC3)cc2)cc1
    ., -0.245
73	CC(=O)N1C(=O)C2(C(C#N)=C(N)Oc3n[nH]c(-c4ccccn4)c32)c2ccccc21 (configuration not stated)
    ., -0.52
74	CCOC(=O)c1sc2nc(SCc3cc(F)cc4c3OCOC4)n(CC3CCCO3)c(=O)c2c1C (configuration not stated)
    ., -0.595
75	Cc1cc(C)nc(Nc2ccc(C(=O)O)cc2)n1
    ., -0.3
76	O=C(c1cc(Cl)nc(Cl)c1)N(CCSCc1cc2cccc3c2n(c1=O)CCC3)Cc1ccccn1
    ., -0.3
77	COCCNc1nc(SCc2ccc(F)cc2)nc2ccccc12
    ., 1.52
78	CCCc1nc2ccccc2c2c1C(=O)N(c1ccccc1N1CCCCC1)C2=O
    ., -0.555
79	COc1ccc(-c2[nH]ncc2-c2ccccc2)c(O)c1
    2.35, -0.825
80	COc1ccc2cc1Oc1ccc(cc1)C[C@H]1c3c(cc4c(c3Oc3cc5c(cc3OC)CCN(C)[C@@H]5C2)OCO4)CCN1C
    -0.35, .
81	Cc1cccc(NC(=O)c2cccs2)n1
    0.2, 2.43
82	CC(=O)Nc1ccc(S(=O)(=O)N=S(C)(C)=O)cc1
    0.35, .
83	CCOC(=O)N1CCN(CC(O)COCCC23CC4CC(CC(C4)C2)C3)CC1 (configuration not stated)
    -0.05, -0.37
84	CSc1ncc(C(=O)NCCc2ccccc2)c(C(F)(F)F)n1
    -0.35, -0.96
85	O=C(C1CC(=O)N(c2ccc(F)c(Cl)c2)C1)N1CCCCC1 (configuration not stated)
    1.8, 0.435
86	Cc1ccc(C2CC(C(F)(F)F)n3nc(C(=O)Nc4c(C)n(C)n(-c5ccccc5)c4=O)c(Cl)c3N2)cc1 (configuration not stated)
    ., -0.325
87	c1ccc(C2=Nc3ccccc3SC(c3ccc4c(c3)OCO4)C2)cc1 (configuration not stated)
    ., -0.15
88	O=C(CCC(=O)NC1CCN(Cc2ccccc2)CC1)NCc1ccco1
    -1.1, .
89	CCOC(=O)c1ccc(NC(=O)c2sc(NC(=O)c3cccc(Cl)c3)c(C(=O)OCC)c2C)cc1
    ., 0.945
90	CCCC(C(=O)NC1CCCCC1)N1Cc2ccccc2C1=O (configuration not stated)
    2.65, -0.885
91	CCOC(=O)c1nc2ccccc2oc1=O
    -0.35, 0.065
92	NNC(=O)c1ccc(CN2C(=O)c3cccc4cccc2c34)cc1
    1.75, .
93	COc1ccc(C(=O)NCCc2nnc3ccc(SCC(=O)Nc4cc(C)on4)nn23)cc1
    -0.45, .
94	c1ccc(CNc2nccc3c2c2ncnc(-c4ccccc4)c2n3Cc2ccccc2)cc1
    ., 8.38
95	Clc1cccc(COn2c(-c3ccccc3)nc3ccc(Cl)cc32)c1
    ., 0.165
96	C/C(=C\C(=O)Nc1ccccc1)N1CCOCC1
    -1.15, -3.16
97	COc1ccc2oc(=Nc3ccc(C(F)(F)F)cc3)c(C(=O)NC(C)=O)cc2c1
    ., 0.42
98	CCOc1ccc(NC(=O)CSC2=C(C#N)C(c3cccs3)CC(=O)N2)cc1 (configuration not stated)
    ., -0.505
99	CSCC(O)Cn1[nH]c(=O)ccc1=O (configuration not stated)
    0.25, 0.125
100	FC(F)(F)c1ccccc1CNCC1NCCc2ccccc21 (configuration not stated)
    0, 0.67
101	Cc1[nH]c2ccc(S(N)(=O)=O)cc2c1C
    -0.3, .
102	O=c1oc2ccccc2cc1-c1nc2c(s1)CCCC2
    2.7, .
103	Cc1ccc(F)cc1S(=O)(=O)N1CCN(c2ccc([N+](=O)[O-])cc2)CC1
    ., -2.21
104	CCC(C)(C)NC(=O)/C=C/c1cccs1
    -1.25, .
105	O=C(CCC(=O)NC(Cc1c[nH]c2ccccc12)C(=O)OCc1ccccc1)Nc1ccc(Br)cn1 (configuration not stated)
    ., -0.61
106	COC(=O)/C=C1\SC(=NC(=O)c2ccc(F)cc2)NC1=O
    -0.5, 1.4
107	CCOC(=O)c1c(N)n[nH]c1C
    -0.2, 0.94
108	Brc1ccc(-c2cnc3ccccc3n2)s1
    -0.5, 7.17
109	CC[C@@]1(O)C(=O)OCc2c1cc1n(c2=O)Cc2cc3c(CN(C)C)c(O)ccc3nc2-1
    0.7, .
110	Cc1ccc2nc(-c3sc4ccccc4c3Cl)oc(=O)c2c1
    ., -0.035
111	Cc1ccc(Oc2ncc(C(F)(F)F)cc2Cl)c2c1CCC2
    1.25, -0.425
112	O=C(O)CSc1cn(Cc2ccccc2)c2ccccc12
    -0.7, 0.02
113	Cc1cc(Nc2cccc3c2OCO3)c2ccccc2n1
    0.85, -2.75
114	O=C(O)CN1C(=O)C2CC=CCC2C1=O (configuration not stated)
    -0.6, 0.155
115	Cc1c(/C=N/NC(N)=S)c2ccccc2n1C
    0.55, 1.88
116	CCOc1ccc2nc(N3CCC(C(=O)NCc4cccnc4)CC3)sc2c1
    -0.05, 0.035
117	CCN(CC)C1CCCCC1NS(=O)(=O)c1ccc(Cl)cc1 (configuration not stated)
    -0.8, -0.82
118	O=C(c1ccco1)N1CCN(c2nc3ccccc3c(=O)n2-c2ccccc2)CC1
    -0.75, -0.185
119	CCc1ccc(NC(=O)N2CC(C)Sc3ccccc32)cc1 (configuration not stated)
    1.75, 0.4
120	O=S(=O)(Cc1ccccc1)c1nc2ccccc2n1Cc1ccc(Br)cc1
    2, -0.285
121	CC(=O)Nc1cccc(OCC(=O)N2CCCCC2)c1
    -0.7, .
122	Cc1cc2c(cc1C)C(C1=C(O)CC(C)(C)CC1=O)=NC(C)(C)C2
    ., 5.97
123	O=C(NC1CC1)c1ccc(Cl)cc1Cl
    -0.8, -0.24

Screening results: PubChem, ICCB-Longwood Screening Facility, Harvard Medical School
